FGF22 binding: shifts melting point of recombinant human FGF22; calls only at 9.99 µM; recombinant FGF22 thermal shift, SYPRO orange fluorescence; percent of sucrose octasulfate shift, DMSO zero; hit rate 1.5% among 340,000; Q9HCT0;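 active = melting point raised past a set limit in the mean and every replicate; three in four hits are not shown here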
Target sequence (Q9HCT0 whole entry, looked up): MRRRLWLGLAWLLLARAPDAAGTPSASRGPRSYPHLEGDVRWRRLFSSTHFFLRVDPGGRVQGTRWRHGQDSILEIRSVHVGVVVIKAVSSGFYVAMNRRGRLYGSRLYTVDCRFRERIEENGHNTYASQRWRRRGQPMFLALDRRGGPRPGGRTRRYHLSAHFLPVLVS
rRNA inh HTS: selective bacterial rRNA inhibition in E. coli. E. coli WT GFP vs humanized-ribosome RFP mutants, fluorescence, 24 h; hits give low values; DMSO median 0, no signal -100. GFP signal change (wild-type ribosome), % (no concentration beside the values). hit rate 1.6% among 350,000. AID 720706;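 active = significant combined selectivity score with lowered wild-type GFP, culture density cut under 30%, mutant RFP and density less affected; inactive = any of these conditions unmet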; also: one replicate is shown; some compounds called inactive have numbers as strong as hits
AF4-AF9 inh: inhibitors of human MLL-AF4/AF9 interaction; AlphaScreen, biotin-AF4 peptide binding to FLAG-AF9; inhibition, % at 10 µM; hit rate 0.47% among 350,000;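 active = every replicate reaching a set inhibition limit, whatever the replicate mean, cut at about 25% in these data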;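 also: 0% = plate neutral control median and 100% = total signal loss; the record names both 10 and 1 µM as test concentration; the first replicate is given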
Target sequence (P42568 whole entry, looked up): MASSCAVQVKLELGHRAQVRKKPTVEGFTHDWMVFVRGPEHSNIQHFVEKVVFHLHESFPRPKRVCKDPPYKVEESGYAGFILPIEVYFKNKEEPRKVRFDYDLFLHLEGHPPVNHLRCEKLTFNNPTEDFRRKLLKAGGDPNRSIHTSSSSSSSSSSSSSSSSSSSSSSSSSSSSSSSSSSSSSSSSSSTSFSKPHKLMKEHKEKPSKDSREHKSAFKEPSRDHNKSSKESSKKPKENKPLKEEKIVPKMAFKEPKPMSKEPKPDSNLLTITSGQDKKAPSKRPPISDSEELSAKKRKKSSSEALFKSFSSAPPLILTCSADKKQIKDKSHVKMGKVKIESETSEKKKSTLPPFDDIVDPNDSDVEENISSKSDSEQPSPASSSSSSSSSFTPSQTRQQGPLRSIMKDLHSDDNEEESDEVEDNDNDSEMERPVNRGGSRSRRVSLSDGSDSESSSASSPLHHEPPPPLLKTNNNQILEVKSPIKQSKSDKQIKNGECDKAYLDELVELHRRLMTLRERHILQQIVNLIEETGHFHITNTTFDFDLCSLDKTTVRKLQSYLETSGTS
rRNA inh HTS OD600: further read-out of rRNA inh HTS, marked with its call; OD600 change, %; measured here: OD600 growth;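 optical density of the mix in the first replicate; 0 = DMSO median and -100 = no signal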
rRNA inh HTS RFP: also measured in rRNA inh HTS; calls as there; RFP signal change, %; measured here: RFP humanized mutant strains;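 first replicate; 0 = DMSO median and -100 = no signal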
Numbers without * were called inactive; i = inactive; · = no result given.

SMILES	FGF22 binding	rRNA inh HTS	rRNA inh HTS OD600	rRNA inh HTS RFP	AF4-AF9 inh
COc1ccc2c3c(n(C)c2c1)[C@H](CO)N(C(C)=O)CC31CCN(S(=O)(=O)c2ccccc2)CC1	i	-4	-17	1.2	-0.3
O=C(Cc1ccccn1)NCC[C@@H]1CC[C@H](NC(=O)Nc2ccc(F)cc2)[C@@H](CO)O1	i	0	0	-1.7	-0.3
C[C@H]1CN([C@@H](C)CO)C(=O)Cc2cc(NS(=O)(=O)c3ccc(F)cc3)ccc2O[C@@H]1CN(C)C(=O)Nc1ccc(F)cc1	i	0	0	-0.7	0.9
COc1ccc2c3c([nH]c2c1)[C@H](CO)N(S(C)(=O)=O)CC31CCN(C(=O)c2cccnc2)CC1	i	3	-1	-3.7	-5.2
COc1ccc(S(=O)(=O)N(C)C[C@H]2OCCCC[C@@H](C)Oc3ccc(NC(=O)C4CCCCC4)cc3C(=O)N([C@H](C)CO)C[C@@H]2C)cc1	i	1	5	-6.3	-2.7
CN1[C@H](CO)[C@@H]2c3ccccc3N(C(=O)Nc3ccccc3F)C[C@@H]21	i	4	13	-2.0	-0.1
CN(C)CC(=O)N[C@H]1CC[C@H](CC(=O)NCc2ccc(Cl)cc2)O[C@@H]1CO	i	-1	0	-1.0	-1.3
Nc1ncnc2c1ncn2[C@@H]1O[C@H](CNC(=O)[C@@H]2C[C@H](F)CN2)[C@@H](O)[C@H]1O	i	7	15	-1.6	-3.4
CN(C)CCCNC(=O)[C@H]1[C@H](CO)[C@H]2Cn3c(ccc(-c4ccccc4)c3=O)[C@@H]1N2C(=O)CC1CC1	i	3	13	-2.0	-0.4
CCCc1c(-c2cccc(Cl)c2)ncn1CCc1ccccc1OC	i	-59	-77	-15	2.7
COc1ccc(CNC(=O)C[C@H]2CC[C@@H](NC(=O)c3ccc4c(c3)OCO4)[C@H](CO)O2)cc1	i	3	-1	-2.7	-0.3
C[C@@H]1CN([C@H](C)CO)C(=O)c2cccc(NC(=O)Nc3ccccc3)c2O[C@@H]1CN(C)S(C)(=O)=O	i	-4	7	-2.9	-2.8
O=C(C[C@H]1C[C@@H]2c3cc(NC(=O)NC4CCCC4)ccc3O[C@@H]2[C@H](CO)O1)NCc1ccccc1F	i	-3	3	-1.1	1.1
CCC(C)N(C(=O)CSc1nnc2ccccn12)C1CCS(=O)(=O)C1 (stereo not given)	i	10	8	-1.6	-5.2
CO[C@H]1CN(C)C(=O)c2cc(NC(=O)C3CCCC3)ccc2OC[C@H](C)N(CCC(F)(F)F)C[C@H]1C	i	-5	-7	4.5	1.9
C[C@@H]1CN([C@H](C)CO)S(=O)(=O)c2ccc(C#CC(C)(C)O)cc2O[C@@H]1CN(C)C(=O)C1CCCCC1	i	0	-2	-0.4	6.0
COc1ccc(NC(=O)N(C)C[C@H]2Oc3ccc(NC(=O)c4ccncc4)cc3C(=O)N([C@@H](C)CO)C[C@H]2C)cc1	i	5	9	-2.5	-2.1
C[C@@H](NC(=O)C[C@H]1C[C@@H]2c3cc(NC(=O)CC4CC4)ccc3O[C@@H]2[C@@H](CO)O1)c1ccccc1	i	2	6	-2.0	-1.0
COc1cccc(CN2[C@@H](CO)[C@@H]3c4ccccc4N(C(=O)CC(F)(F)F)C[C@@H]32)c1	i	-7	-3	0.0	1.1
C[C@H]1CN([C@@H](C)CO)C(=O)Cc2cc(NC(=O)CCN3CCOCC3)ccc2O[C@@H]1CN(C)Cc1ccc(C(=O)Nc2ccccc2N)cc1	i	1	11	1.7	1.8
COCc1cn(CC[C@H]2CC[C@H](NC(=O)c3ccc(F)cc3)[C@H](CO)O2)nn1	i	4	0	1.7	-1.7
COc1ccc(NC(=O)C2Cc3c(-c4ccc5c(c4)OCO5)ccnc3O2)cc1OC (stereo not given)	i	10	6	3.8	1.6
Cn1cnc(S(=O)(=O)N[C@@H]2CC[C@H](CC(=O)Nc3ccc(-c4ccccc4)cc3)O[C@H]2CO)c1	i	-2	-3	0.8	1.2
CC1C=NC(S(=O)(=O)N2CC[C@@H]3[C@@H](CO)N(C)c4ccc(-c5ccccc5F)cc4[C@@H]32)=N1 (stereo not given in full)	i	-9	-29	9.6	17
COc1ccccc1NC(=O)N1CCCCN2[C@H](CO)[C@@H](c3ccc(C#Cc4ccccc4)cc3)[C@@H]2C1	i	6	17	1.1	-3.1

(further entries)
SMILES	FGF22 binding	rRNA inh HTS	rRNA inh HTS OD600	rRNA inh HTS RFP	AF4-AF9 inh
CC1(C)C(=O)Nc2ccccc2N1C(=O)COC(=O)c1ccc([N+](=O)[O-])o1	i	27	23	2.3	-1.9
Cc1noc(C)c1NC(=O)N(C)C[C@H]1Oc2ccc(NC(=O)Nc3ccc(F)cc3)cc2C(=O)N([C@H](C)CO)C[C@@H]1C	i	-1	-1	0.8	-11
COc1ccc(S(=O)(=O)N2CCOCC2)cc1NC(=O)CN1C(=O)NC2(CCC(C)CC2)C1=O (stereo not given)	i	-3	2	1.2	1.2
Cc1ccc(S(=O)(=O)N[C@@H]2C=C[C@H](CC(=O)N3CCC(Cc4ccccc4)CC3)O[C@H]2CO)cc1	i	-3	-34	32	2.3
COCCN1C[C@@H](CO)O[C@@H](n2cnc3c(NCc4cc(OC)c(OC)c(OC)c4)ncnc32)C1	i	-3	5	-4.0	-4.3
C[C@H]1CCCCO[C@H](CN(C)S(=O)(=O)c2ccccc2)[C@@H](C)CN([C@@H](C)CO)C(=O)c2cc(NS(=O)(=O)c3cn(C)cn3)ccc2O1	i	1	2	0.2	-1.6
Cc1ccc(S(=O)(=O)NCC[C@H]2CC[C@@H](NC(=O)CC3CC3)[C@@H](CO)O2)cc1	i	-3	-4	-3.5	-0.8
CCOCc1c(C(=O)Nc2ccccc2N2CCN(C)CC2)oc2ccccc12	i	-10	-6	3.6	12
O=C(OCCOCCOC(=O)Oc1ccccc1)Oc1ccccc1	i	-8	-6	2.3	-0.9
CC(C)CC1C(=O)N(Cc2cn(CCC3OCCCO3)nn2)CCS(=O)(=O)N1Cc1ccc(-c2cccc(N(C)C)c2)cc1 (stereo not given)	·	6	-1	-3.1	5.0
O=C(C[C@@H]1CC[C@H]2[C@@H](COC[C@H](O)CN2C(=O)c2cnccn2)O1)NCc1ccc(Cl)cc1	i	3	12	-2.2	-5.3
O=C(N[C@@H]1CC[C@H](CCNS(=O)(=O)c2ccc(F)cc2)O[C@H]1CO)C1CCC1	i	-1	-2	-1.4	-0.7
Cc1noc(C)c1NC(=O)Nc1ccc2c(c1)C(=O)N([C@@H](C)CO)C[C@@H](C)[C@H](CN(C)C(=O)NC(C)C)O2	i	0	8	-0.6	-0.5
COc1ccc(NC(=O)N2C[C@@H]3[C@H](c4ccccc42)[C@@H](CO)N3C(=O)C2CC2)cc1	i	2	4	-3.9	1.6
CO[C@H]1CN(C)C(=O)c2cc(NC(C)=O)ccc2OC[C@H](C)N(C(=O)Cc2cccnc2)C[C@@H]1C	i	2	1	0.0	0.4
Cc1ccc(S(=O)(=O)Nc2ccc3c(c2)C(=O)N([C@@H](C)CO)C[C@H](C)[C@@H](CN(C)Cc2ccc(C(F)(F)F)cc2)OCCCC[C@H](C)O3)cc1	i	-1	-6	3.4	1.4
Cc1cccc(CN2CCN(C3CN(C4CCCCC4)S(=O)(=O)C3)CC2)c1 (stereo not given)	i	2	4	-3.2	-3.3
COc1ccc(S(=O)(=O)Nc2ccc3c(c2)C(=O)N([C@H](C)CO)C[C@@H](C)[C@@H](CN(C)C)OCCCC[C@H](C)O3)cc1	i	3	3	-0.3	-0.1
COc1ccc(NC(=O)N2C[C@H](O)COC[C@H]3O[C@@H](CC(=O)N4CCN(C)CC4)CC[C@@H]32)cc1	i	6	13	0.9	-1.9
Cc1ccccc1S(=O)(=O)N1C[C@@H](O)COC[C@H]2O[C@@H](CC(=O)NCc3ccccc3Cl)CC[C@@H]21	i	-4	-7	-1.9	1.7
N#Cc1cccnc1N1CCN(C(c2ccnc3ccccc23)c2nnnn2-c2ccc3c(c2)OCCO3)CC1 (stereo not given)	i	10	4	-0.3	4.5
COc1ccc(-c2cc3nc(NCCN4CCCC4)n(C)c(=O)c3s2)cc1OC	i	4	11	1.9	8.8
CN(CC(=O)Nc1ccc(Cl)cc1)CC(=O)N1CCc2ccccc21	i	0	7	-2.5	-1.9
COc1ccccc1-c1cn(CC[C@@H]2CC[C@H](NC(=O)c3cnccn3)[C@H](CO)O2)nn1	i	-3	-8	-2.1	0.6
CCNC(=O)Nc1ccc2c(c1)C(=O)N(C)[C@H]1CC[C@@H](CC(=O)N[C@H](C)c3ccccc3)O[C@@H]1CO2	i	1	4	-1.2	-2.1

Overlap with the part before: 5 compounds, then new ones.
SMILES	FGF22 binding	rRNA inh HTS	rRNA inh HTS OD600	rRNA inh HTS RFP	AF4-AF9 inh
N#Cc1cccnc1N1CCN(C(c2ccnc3ccccc23)c2nnnn2-c2ccc3c(c2)OCCO3)CC1 (stereo not given)	i	10	4	-0.3	4.5
COc1ccc(-c2cc3nc(NCCN4CCCC4)n(C)c(=O)c3s2)cc1OC	i	4	11	1.9	8.8
CN(CC(=O)Nc1ccc(Cl)cc1)CC(=O)N1CCc2ccccc21	i	0	7	-2.5	-1.9
COc1ccccc1-c1cn(CC[C@@H]2CC[C@H](NC(=O)c3cnccn3)[C@H](CO)O2)nn1	i	-3	-8	-2.1	0.6
CCNC(=O)Nc1ccc2c(c1)C(=O)N(C)[C@H]1CC[C@@H](CC(=O)N[C@H](C)c3ccccc3)O[C@@H]1CO2	i	1	4	-1.2	-2.1
C[C@@H]1CN([C@@H](C)CO)C(=O)Cc2cc(NC(=O)Nc3ccc4c(c3)OCO4)ccc2O[C@H]1CN(C)C(=O)NC1CCCCC1	i	-2	-5	1.4	4.7
CC(C)CC#Cc1ccc2c(c1)O[C@@H](CN(C)Cc1ccccc1F)[C@@H](C)CN([C@@H](C)CO)S2(=O)=O	i	0	0	3.4	-0.1
C[C@H]1CN([C@@H](C)CO)C(=O)c2cc(NC(=O)CCCN(C)C)ccc2O[C@@H]1CN(C)C(=O)Nc1cccc2ccccc12	i	2	6	-0.2	-1.5
CCc1nc2ccc(C(=O)N3CCN(C(=O)c4ccco4)CC3)cn2c1N(C)Cc1ccc(OC)cc1	i	4	8	-0.2	-0.5
COc1cc2oc(=O)cc(-c3cccc(-c4ccc(C(F)(F)F)cc4)c3)c2c(OC)c1OC	i	14	20	4.2	-4.1
CNC[C@H]1OCCCC[C@@H](C)Oc2ccc(N(C)C)cc2C(=O)N([C@@H](C)CO)C[C@H]1C	i	4	5	-3.7	-4.5
CSc1ncccc1C(=O)OCC(=O)NC1CC1	i	-1	-1	-0.5	-17
C[C@H](CO)N1C[C@H](C)[C@H](CN(C)Cc2ccc3c(c2)OCO3)Oc2ccc(NC(=O)C3CC3)cc2CC1=O	i	4	7	-1.9	-2.3
C[C@@H]1CN([C@@H](C)CO)C(=O)c2cc(-c3cccc(F)c3)cnc2O[C@@H]1CN(C)Cc1ccccn1	i	-3	-1	-2.8	-2.6
COc1ccc(-c2ccc(CN3C(CC(C)C)C(=O)N(Cc4cn(CC5CCCCC5)nn4)CCS3(=O)=O)cc2)cn1 (stereo not given)	i	18	14	-0.7	0.1
CCCC#Cc1cnc2c(c1)C(=O)N([C@H](C)CO)C[C@H](C)[C@@H](CN(C)Cc1ccccc1)O2	i	4	6	1.2	2.8
COc1ccc(OC)c(C(=O)CCCCC(=O)c2cc(OC)ccc2OC)c1	i	0	8	-3.2	-1.6
COC(=O)C[C@@H]1C[C@H]2c3cc(NC(=O)CN(C)C)ccc3O[C@H]2[C@H](CO)O1	i	0	0	-1.4	-19
CC=Cc1ccc2n(c1=O)C[C@@H]1[C@@H](CO)[C@H](C(=O)NCC(F)(F)F)[C@H]2N1C(C)=O (mixture of isomers)	i	0	5	-3.0	-0.3
CCC(=O)N1[C@@H]2Cn3c(ccc(-c4cccnc4)c3=O)[C@H]1[C@@H](C(=O)N1CCc3ccccc3C1)[C@@H]2CO	i	2	11	0.1	0.3
C[C@H]1CN([C@@H](C)CO)C(=O)Cc2cc(NC(=O)Cc3cn(C)c4ccccc34)ccc2O[C@@H]1CN(C)C(=O)Nc1ccc(C(F)(F)F)cc1	i	3	-6	2.4	0.5
O=C(CC1CC1)N[C@H]1CC[C@@H](CCNS(=O)(=O)c2ccc(Cl)cc2)O[C@H]1CO	i	-1	1	1.1	-1.3
C[C@H]1CN([C@@H](C)CO)C(=O)c2cc(NC(=O)c3ccncc3)ccc2O[C@@H]1CN(C)C(=O)Nc1ccc2c(c1)OCO2	i	3	11	-3.6	-3.0

Structural class: the entries above containing two or more sulfur atoms (2)
SMILES	FGF22 binding	rRNA inh HTS	rRNA inh HTS OD600	rRNA inh HTS RFP	AF4-AF9 inh
CCC(C)N(C(=O)CSc1nnc2ccccn12)C1CCS(=O)(=O)C1 (stereo not given)	i	10	8	-1.6	-5.2
C[C@H]1CCCCO[C@H](CN(C)S(=O)(=O)c2ccccc2)[C@@H](C)CN([C@@H](C)CO)C(=O)c2cc(NS(=O)(=O)c3cn(C)cn3)ccc2O1	i	1	2	0.2	-1.6

These rows are one share of the data; the hit share may differ from the screen's.
